Compound activity (PubChem)
VDR inhibitor – Inhibitors of the vitamin D receptor (VDR): qHTS; hit rate 0.93% among 400,000; Potency, µM, for inactives: max response, negative = inhibition, most hits filed as inhibitors; VDR-SRC2-3 peptide fluorescence polarization, 2 h; AID 504847, 2011; Vitamin D3 receptor (Homo sapiens), P11473; active means well fitted inhibition curve with a large enough effect; inconclusive means small, poorly fitted or top-dose-only effect, or another doubt; inactive means no such curve, though single readings can be large or run the other way; further: series mostly up to about 120 µM
Target sequence (P11473 whole entry, looked up): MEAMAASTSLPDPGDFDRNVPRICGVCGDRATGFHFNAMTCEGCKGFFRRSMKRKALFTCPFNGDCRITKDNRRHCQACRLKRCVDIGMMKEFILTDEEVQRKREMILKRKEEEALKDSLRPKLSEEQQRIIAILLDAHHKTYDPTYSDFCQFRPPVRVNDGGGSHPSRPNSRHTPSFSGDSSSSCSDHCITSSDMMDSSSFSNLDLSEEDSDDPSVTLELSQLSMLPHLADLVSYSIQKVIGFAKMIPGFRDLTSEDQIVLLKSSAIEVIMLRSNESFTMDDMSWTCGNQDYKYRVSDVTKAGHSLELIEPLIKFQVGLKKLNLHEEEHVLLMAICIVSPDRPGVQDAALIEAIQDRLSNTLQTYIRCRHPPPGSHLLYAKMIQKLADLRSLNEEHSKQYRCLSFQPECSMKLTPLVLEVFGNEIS
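VDR–SRC2-3 interaction, FP format. Cmpds 23 nl via pintool, brief spin, 2 h ambient incubation.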
* = called active by the depositor; ? = inconclusive; & = joins results of further samples. On the % scale 0 is the no-effect control and ±100 the full control effect; potency means the concentration at half of the fitted maximal effect. Some of the compounds tested; count on the stated rates, not on these rows.

# | VDR inhibitor | SMILES
1 | -11% | Cc1ccc(S(=O)(=O)N2CCN(c3ccccc3)CC2)c(C)c1
2 | -14% | CCc1nc(N)c(C#N)c(-c2ccco2)c1C
3 | -4% | CCN(Cc1nc(-c2ccc(OC)c(OC)c2)no1)C(=O)c1ccc2c(c1)OCO2
4 | -8% | Cn1c(C(=O)NCCN2CCOCC2)cc2c(=O)n(C)c3ccccc3c21
5 | -12% | COc1ccc(CCn2c(C)nc3c(c(=O)c4ccccc4n3C)c2=O)cc1
6 | 2% | Cc1ccc(-c2nnc(Nc3cccc(Br)c3)c3ccccc23)cc1S(=O)(=O)N1CCN(C)CC1
7 | 18% | COc1ccc2cc(C(=O)Nc3ccc(F)cc3)sc(=O)c2c1OC
8 | 4% | CCN(CC)C(=O)Cn1cc(C(=O)C(=O)Nc2ccc3c(c2)OCCO3)c2ccccc21
9 | 9% | COCCCNc1ncnc2onc(-c3ccc(F)cc3)c12
10 | -5% | COc1ccc(-c2nc(CN3CCN(C(=O)c4ccco4)CC3)c(C)o2)c(OC)c1C

# | VDR inhibitor | SMILES
11 | -13% | CCOC(=O)c1ccc(-n2c(C)nc3ccc(Br)cc3c2=O)cc1
12 | -6% | CCc1cc(=O)oc2cc(OS(C)(=O)=O)ccc12
13 | 8% | CN(C)CCCN(C(=O)c1ccc(Br)s1)c1nc2ccc(F)cc2s1
14 | 10% | CCOC(=O)c1cc(C)n(CC2CCC(C(=O)Nc3cccc(C)c3)CC2)c1C (stereo not given)
15 | 20% | Cc1ccccc1C(=O)Nc1c(C(=O)Nc2cccc(F)c2)oc2ccccc12
16 | -12% | CC1(C)CN2C(=S)N(c3ccccc3)C(c3ccccc3)N2C1 (stereo not given)
17 | -1% | COCCCNc1nc2nonc2nc1N1CCN2CCCC2C1 (stereo not given)
18 | -9% | COc1ccccc1-c1noc(CCC(=O)Nc2cc(C(F)(F)F)ccc2Cl)n1
19 | -7% | CCN(C(=O)COC(=O)/C=C/c1cccc(Cl)c1)c1c(N)n(Cc2ccccc2)c(=O)[nH]c1=O
20 | -14% | CC(CNC(=O)CCS(=O)(=O)c1ccc2c(c1)NC(=O)CO2)c1ccccc1 (stereo not given)

# | VDR inhibitor | SMILES
21 | 0% | CCC(C)NC(=O)c1cc2n(n1)CCCN(Cc1ccc(C)cc1)C2=O (stereo not given)
22 | -7% | CC1Oc2ccccc2OC1C(=O)Nc1ccccn1 (stereo not given)
23 | -9% | COc1cccc(C(=O)N/N=C(\C)c2ccc(NC(=O)Cc3ccccc3)cc2)c1OC
24 | 13% | COc1ccc(C(=O)NCCSCc2ccccc2)cc1OC
25 | 20% | CCCc1ccc(OCc2ccc(C(=O)N/N=C/c3cccnc3)o2)cc1
26 | -23% | CCOC(=O)c1ccc(-c2cc(C)no2)[nH]1
27 | -20% | Oc1ccc(C[C@@H]2CNCCN2CCCCC2CCCCC2)cc1
28 | ? | NC(=O)c1ccc(N=C2C(=O)Nc3ccc([N+](=O)[O-])cc32)cc1
29 | 6% | COc1ccc(-c2coc3cc(O)cc(O)c3c2=O)cc1OC
30 | 9% | CCOC(=O)Cc1nn[nH]n1

In the list so far, eight have sulfur:
# | VDR inhibitor | SMILES
1 | -11% | Cc1ccc(S(=O)(=O)N2CCN(c3ccccc3)CC2)c(C)c1
6 | 2% | Cc1ccc(-c2nnc(Nc3cccc(Br)c3)c3ccccc23)cc1S(=O)(=O)N1CCN(C)CC1
7 | 18% | COc1ccc2cc(C(=O)Nc3ccc(F)cc3)sc(=O)c2c1OC
12 | -6% | CCc1cc(=O)oc2cc(OS(C)(=O)=O)ccc12
13 | 8% | CN(C)CCCN(C(=O)c1ccc(Br)s1)c1nc2ccc(F)cc2s1
16 | -12% | CC1(C)CN2C(=S)N(c3ccccc3)C(c3ccccc3)N2C1 (stereo not given)
20 | -14% | CC(CNC(=O)CCS(=O)(=O)c1ccc2c(c1)NC(=O)CO2)c1ccccc1 (stereo not given)
24 | 13% | COc1ccc(C(=O)NCCSCc2ccccc2)cc1OC

(cont.)
# | VDR inhibitor | SMILES
31 | -11% | CCOC(=O)c1c(NC(=S)N2CCOCC2)sc(C)c1C
32 | 3% | COC(=O)c1ccsc1-n1cc(C#N)c(=O)n(C)c1=O
33 | -15% | COc1ccc(Br)cc1[C@H]1[C@H]2C=CC[C@@H](C)[C@@H]2C(=O)N1Cc1ccccc1
34 | 1% | CCOC(=O)C1CCCN(C(=O)c2ccc3c(c2)N(Cc2ccccc2)C(=O)c2ccccc2S3(=O)=O)C1 (stereo not given)
35 | 13% | O=C(Cc1cccc2ccccc12)NCC1CCCO1 (stereo not given)
36 | 0% | Cc1nc([N+](=O)[O-])c(C(=O)OCc2cccc(Br)c2)n1C
37 | -5% | Cc1ccccc1NC(=O)C1CCN(C(=O)c2cnn(-c3ccccc3)c2-n2cccc2)CC1
38 | 2% | Cc1ccn2c(NC(=O)C(C)(C)Oc3ccc(Cl)cc3)c(-c3cccs3)nc2c1
39 | 4% | O=C(NC1CCCCC1)C1CCN(S(=O)(=O)c2cccs2)CC1
40 | 24% | Cc1ccc2c(=O)cc(C(=O)Nc3ccc(S(=O)(=O)N4CCCCC4C)cc3)oc2c1C (stereo not given)

Among those listed so far, these contain fluorine.
# | VDR inhibitor | SMILES
7 | 18% | COc1ccc2cc(C(=O)Nc3ccc(F)cc3)sc(=O)c2c1OC
9 | 9% | COCCCNc1ncnc2onc(-c3ccc(F)cc3)c12
13 | 8% | CN(C)CCCN(C(=O)c1ccc(Br)s1)c1nc2ccc(F)cc2s1
15 | 20% | Cc1ccccc1C(=O)Nc1c(C(=O)Nc2cccc(F)c2)oc2ccccc12
18 | -9% | COc1ccccc1-c1noc(CCC(=O)Nc2cc(C(F)(F)F)ccc2Cl)n1

(list continues)
# | VDR inhibitor | SMILES
41 | -11% | CCC1(CC)Nc2ccccc2C(=O)N1c1ccc(OC)cc1
42 | 4% | COc1cccc(C2=NOC(C(=O)Nc3cc(OC)c(OC)c(OC)c3)C2)c1 (stereo not given)
43 | 10% | Cc1ccc2oc(=O)c3cc(C(=O)NCc4ccc(Cl)cc4)sc3c2c1
44 | 6% | COc1ccccc1NC(=O)CSc1nnc2c3ccccc3n(C)c2n1
45 | -3% | COc1ccc(-n2c(SCC(C)=O)nc3sc(C)c(C)c3c2=O)cc1
46 | 19% | COc1cccc2[nH]c3c(N4CCC(C)CC4)ncnc3c12
47 | -17% | COc1ccc(NC(=O)c2c(F)cccc2Cl)cc1S(=O)(=O)N1CCOCC1
48 | 0% | COc1cc(OC)c2c(c1Cl)O[C@@]1(C2=O)[C@H](C)CC(=O)C[C@@H]1OC
49 | 2% | CCN(CC)CCCC(C)Nc1nccc2cccc(Cl)c12 (stereo not given)
50 | ? | O=C(/C=C/c1cccc(F)c1)Nc1ccc(S(=O)(=O)N2CCOCC2)cc1

# | VDR inhibitor | SMILES
51 | -18% | CCOc1ncnc2c1sc1nc3c(cc12)COC(C)(C)C3
52 | -19% | Cc1ccc2nc(SCC(=O)NCc3ccc(F)cc3)nc(=O)n2c1
53 | -11% | CCN(C(=O)COc1cc(=O)n(C)c2ccccc12)c1cccc(Cl)c1
54 | -20% | Cc1cc(C(=O)NNC(=O)c2ccc(Cl)cc2)c2ccccc2n1
55 | -10% | O=C(NC1CC1)c1cccc(NC(=O)C2CCCC2)c1
56 | -18% | Cc1cccc(N2C(=O)c3ccccc3C2=O)n1
57 | -7% | O=C(NCc1cccc(C(F)(F)F)c1)c1cccc2c1C(=O)c1ccc(N3CCC(Cc4ccccc4)CC3)cc1S2(=O)=O
58 | -18% | CC(C)Cc1oc(C(=O)O)cc1CN1CCOCC1
59 | 6% | Cn1c(CNC(=O)CNS(=O)(=O)c2ccc(Cl)cc2)cc(=O)n(C)c1=O
60 | ? | c1cc(NC2CC2)nc(-c2ccoc2)n1

2 compounds picked at random from the list so far, as already listed:
# | VDR inhibitor | SMILES
7 | 18% | COc1ccc2cc(C(=O)Nc3ccc(F)cc3)sc(=O)c2c1OC
49 | 2% | CCN(CC)CCCC(C)Nc1nccc2cccc(Cl)c12 (stereo not given)

A few values from the list.
For VDR inhibitor, compound 54 shows -20%
For VDR inhibitor, compound 55 shows -10%
For VDR inhibitor, compound 56 shows -18%
For VDR inhibitor, compound 51 shows -18%

(listing goes on)
# | VDR inhibitor | SMILES
61 | 11% | CC1(C)Cc2c(C#N)c(SCCC#N)nc(N3CCOCC3)c2CS1
62 | -5% | O=C(CSc1nc2scc(-c3ccco3)c2c(=O)n1-c1ccccc1)NCC1CCCO1 (stereo not given)
63 | ? | Cc1cc(NC(=O)CS(=O)(=O)c2cn(C)c3ccccc23)no1
64 | -19% | CN(C)S(=O)(=O)c1ccc(Cl)c(C(=O)Nc2ccccc2[N+](=O)[O-])c1
65 | -10% | OC(CN1CCCCC1)Cn1c2ccccc2c2cc(Br)ccc21 (stereo not given)
66 | -6% | Cc1[nH]c(-c2ccc(F)cc2)cc1C(=O)N1CCN(c2cccc(Cl)c2)CC1
67 | 2% | CN1CCN(CCCNC(=O)CCC(=O)N2CCOc3ccccc32)CC1
68 | -8% | COC(=O)c1ccc(C(=O)OC)c(NC(=S)N2CCOCC2)c1
69 | -1% | COc1ccccc1C(CNC(=O)COc1ccccc1C)N1CCCC1 (stereo not given)
70 | -14% | COc1ccc(CCN2CC(C(=O)NCCc3cn[nH]c3)CCC2=O)cc1 (stereo not given)

# | VDR inhibitor | SMILES
71 | 1% | COc1ccc(NC(=O)CSc2oc(-c3cccs3)nc2S(=O)(=O)c2ccc(Br)cc2)c(OC)c1
72 | 1% | Cc1oc(-c2ccccc2Cl)nc1CSCC(=O)NC1CC1
73 | -7% | COC(=O)c1cccc(CSc2nc(-c3ccccc3)c(C#N)c(=O)[nH]2)c1
74 | 9% | CC(=O)Nc1cccc(C(=O)Nc2ccccc2N2CCOCC2)c1
75 | -11% | CCC(O)(CC)C(=O)NN(C(=O)CCl)c1ccccc1
76 | 6% | CCN(CC)S(=O)(=O)c1ccc(N2CC(C(=O)N3CCOCC3)CC2=O)cc1 (stereo not given)
77 | 2% | COc1ccc(NC(=O)C2CC(c3ccc(Cl)cc3)=NO2)cc1OC (stereo not given)
78 | -2% | O=C1/C(=C\c2ccc3c(c2)OCO3)CCC/C1=C/c1ccc2c(c1)OCO2
79 | 3% | COc1cc(C(=O)NCCOc2cccc3cccnc23)cc(OC)c1OC
80 | -3% | Cn1cc(C(C[N+](=O)[O-])c2ccccc2)c2ccccc21 (stereo not given)

# | VDR inhibitor | SMILES
81 | 4% | O=C(N/C(=C\c1ccccc1Cl)C(=O)N1CCOCC1)c1ccc([N+](=O)[O-])cc1
82 | 3% | CN(Cc1nc(-c2ccc(Cl)cc2)no1)S(=O)(=O)c1ccccc1
83 | 1% | COc1ccc(-n2c(=O)c(-c3cccs3)nc3cnc(Nc4ccccc4)nc32)cc1
84 | -5% | CCCc1nnc(NC(=O)CSc2nnc(-c3ccco3)n2C)s1
85 | 4% | NC(N)=S
86 | -15% | Cc1ccc(S(=O)(=O)c2cn(CC(=O)Nc3cccc(Cl)c3)c3ccccc3c2=O)cc1
87 | 2% | CCCOC(=O)c1c(NC(=O)/C=C/c2cnn(C)c2C)sc(C(=O)OC)c1C
88 | 20% | CSc1oc(-c2ccccc2)nc1S(=O)(=O)c1ccc(F)cc1
89 | 20% | CCOC(=O)CNC(=O)Cc1ccc(Cl)cc1
90 | 10% | CCOC(=O)C1(Cc2ccc(Cl)cc2)CCN(C(=O)c2sc(C)nc2C)CC1

# | VDR inhibitor | SMILES
91 | -3% | Cc1ccc(SCC(=O)N(C)C2CCS(=O)(=O)C2)cc1 (stereo not given)
92 | 14% | Cc1cc(C)n(-c2nc(NCCCO)c3c4c(sc3n2)CCCC4)n1
93 | 6% | O=c1[nH]c(SCc2ccccc2Cl)nc2c1CCC2
94 | -2% | NNC(=O)c1ccccc1OCCOc1ccccc1
95 | 18% | CCCc1cc(=O)[nH]c(Nc2ccc3c(c2)OCCO3)n1
96 | 5% | O=C(O)c1cccc(Nc2ccnc(Nc3cccc(C(=O)O)c3)n2)c1
97 | -3% | Cn1cc(CN2C[C@H]3CC[C@H]2C3)c(-c2ccccc2F)n1
98 | 5% | Nn1c(-c2cccc(O)c2)nnc1-c1cccc(O)c1
99 | -4% | COCCCn1c(=NC(C)=O)c(C#N)cc2c(=O)n3cccc(C)c3nc21
100 | -5% | COc1cc2[nH]c(=O)n(CCC(=O)N3CCN(Cc4ccc5c(c4)OCO5)CC3)c(=O)c2cc1OC

# | VDR inhibitor | SMILES
101 | -7% | C=CCSc1nc(O)c(CC)c(=O)n1C(C)CC (stereo not given)
102 | -7%&4% | NS(=O)(=O)c1cc(Cl)c(Cl)c(S(N)(=O)=O)c1
103 | ? | O=C(CS(=O)(=O)Cc1ccccc1)N1CCN(Cc2ccc3c(c2)OCO3)CC1
104 | -18% | Cc1ccc(C(=O)CCC(=O)OC(C)C(=O)NC2CCCCC2C)cc1 (stereo not given)
105 | 5%&9% | COc1ccc(CNS(=O)(=O)c2cc3c(cc2Cl)NC(=O)CO3)cc1
